DUX4 txn inh – DUX4-mediated transcription inhibition. 293T-iDUX4 ZSCAN4-Gaussia luciferase reporter, 24 h; stronger effect = lower value. activity change, negative = inhibition, % (no concentration beside the values). 0.8% of 37,000 active. AID 1224904;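 active = -10% or lower and over 25 points stronger than a control reporter; inconclusive = -10% or lower with a smaller gap; inactive = above -10%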;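 also: 0% = median of neutral control wells and -100% = median of positive control wells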
DUX4 txn inh difference – second read-out of DUX4 txn inh, no call of its own (marks repeat the call); Gaussia minus Italica difference, %; measured here: selective DUX4 reporter inhibition;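 worked out from the two reporters; negative = selective loss of the DUX4 reporter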
DUX4 txn inh control – further read-out of DUX4 txn inh, marked with its call; activity change, negative = inhibition, %; measured here: Italica tet-on control reporter;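 0 = neutral control and -100 = positive control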
* = called active by the depositor; ? = inconclusive; . = not tested or not shown. The list is partial; rates above refer to the full screens.

The opening 4 records as a preview:
SMILES	DUX4 txn inh	DUX4 txn inh difference	DUX4 txn inh control
COC(=O)C[C@@H]1CC[C@H]2[C@H](COc3ccc(NC(=O)c4ccc(C(F)(F)F)cc4)cc3C(=O)N2C)O1	2.3	-2.1	4.3
O=C(NC1CCCCC1)N1CC2(C1)[C@@H](c1ccccc1)[C@@H](CO)N2S(=O)(=O)Cc1ccccc1	3.8	3.0	0.7
CCCNC(=O)N1CC2(CCN(Cc3ccncc3)CC2)c2c(n(C)c3cc(OC)ccc23)[C@@H]1CO	1.9	0.4	1.5
CN(C)C(=O)[C@H]1[C@H](CO)[C@H]2Cn3c(cccc3=O)[C@H]2N1C(=O)C1CCCCC1	1.6	7.0	-5.3

Results (from the top)
SMILES	DUX4 txn inh	DUX4 txn inh difference	DUX4 txn inh control
COC(=O)C[C@@H]1CC[C@H]2[C@H](COc3ccc(NC(=O)c4ccc(C(F)(F)F)cc4)cc3C(=O)N2C)O1	2.3	-2.1	4.3
O=C(NC1CCCCC1)N1CC2(C1)[C@@H](c1ccccc1)[C@@H](CO)N2S(=O)(=O)Cc1ccccc1	3.8	3.0	0.7
CCCNC(=O)N1CC2(CCN(Cc3ccncc3)CC2)c2c(n(C)c3cc(OC)ccc23)[C@@H]1CO	1.9	0.4	1.5
CN(C)C(=O)[C@H]1[C@H](CO)[C@H]2Cn3c(cccc3=O)[C@H]2N1C(=O)C1CCCCC1	1.6	7.0	-5.3
COc1ccccc1S(=O)(=O)N1C[C@@H]2N[C@H](C1)C2c1ccc(-c2ccc(F)cc2)cc1 (stereo partly specified)	?	-1.0	-6.8
O=C(C[C@H]1C=C[C@H](NS(=O)(=O)c2ccc(F)cc2)[C@@H](CO)O1)NCc1ccncn1	4.9	3.6	1.3
COc1ccc2c3c(n(C)c2c1)[C@H](CO)N(Cc1ccccc1)CC31CN(S(=O)(=O)c2ccc(C)cc2)C1	?	.	.
Cc1cccc(NC(=O)Nc2ccc3c(c2)C(=O)N(C)[C@H]2CC[C@@H](CC(=O)NCc4ccccc4Cl)O[C@H]2CO3)c1	-0.1	5.7	-5.8
COc1ccccc1S(=O)(=O)N[C@@H]1CC[C@@H](CCn2cc(C3CCCCC3)nn2)O[C@H]1CO	1.6	-4.6	6.2
CCCN1C[C@H](C)[C@@H](OC)CN(C)C(=O)c2cc(NC(=O)c3ccccc3F)ccc2OC[C@@H]1C	-3.6	-9.0	5.3
Cc1ccccc1S(=O)(=O)N1CC[C@@H]2[C@@H](CO)N(C)c3ccc(Br)cc3[C@@H]21	-23.1*	-26.1*	3.0*
CC(C)NC(=O)N1CC[C@@H]2[C@@H](CO)N(C)c3ccc(-c4ccc(F)cc4)cc3[C@@H]21	?	.	.
C/C=C/c1ccc2c(c1)O[C@H](CN(C)Cc1ccc(C(=O)O)cc1)[C@H](C)CN([C@@H](C)CO)S2(=O)=O	-3.8	-4.8	1.0
O=C(c1ccccn1)N1CC[C@@H]2[C@H](CO)Nc3ccc(-c4ccc(F)cc4)cc3[C@@H]21	-2.3	6.2	-8.4
CO[C@@H](CN(C)Cc1cc(F)ccc1F)[C@@H](C)CN(C(=O)Nc1ccc(F)cc1)[C@H](C)CO	5.2	6.4	-1.2
Cc1noc(C)c1C(=O)N(C)C[C@H]1OCc2ccccc2-c2ccccc2C(=O)N([C@H](C)CO)C[C@H]1C	2.8	-1.6	4.4
CCS(=O)(=O)N1CC2(C1)[C@@H](c1ccccc1)[C@@H](CO)N2CCC(F)(F)F	2.4	3.2	-0.8
COc1ccccc1CNC(=O)C[C@H]1C=C[C@H](NC(=O)CC2CC2)[C@@H](CO)O1	3.6	0.9	2.8
C[C@H](CO)N1C[C@H](C)[C@@H](CN(C)Cc2cccc(C(=O)Nc3ccccc3N)c2)OCc2ccccc2-c2c(n(C)c3ccccc23)C1=O	?	.	.
COCC(=O)Nc1ccc2c(c1)C(=O)N(C)C[C@@H](OC)[C@@H](C)CN(Cc1cncnc1)[C@@H](C)CO2	7.7	3.7	4.1
O=C(CC(F)(F)F)N1C[C@H]2[C@@H](c3ccccc31)[C@H](CO)N2C(=O)c1cccnc1	5.5	4.0	1.5
N#C[C@H]1N[C@@H](CO)[C@H]1c1ccc(C#CC2CCCC2)cc1	-3.3	-2.4	-0.9
COc1cccc(C#Cc2ccc([C@@H]3[C@H](C#N)N(C(=O)C4CC4)[C@H]3CO)cc2)c1	0.4	-1.6	2.0
N#Cc1cccc(-c2ccc3c(c2)[C@H]2[C@H](CCN2Cc2ccc4c(c2)OCO4)[C@@H](CO)N3)c1	?	.	.
CCOC(=O)N(C)C[C@H]1OCc2ccccc2-c2ccccc2C(=O)N([C@H](C)CO)C[C@H]1C	26.5	30.4	-3.8
CC(C)C(=O)Nc1ccc2c(c1)C(=O)N(C)[C@H]1CC[C@H](CC(=O)Nc3ccccc3F)O[C@@H]1CO2	7.0	5.6	1.4
CC=Cc1ccc2n(c1=O)C[C@H]1[C@H](CO)[C@@H](C(=O)NC3CCCCC3)N(C(=O)C3CC3)[C@@H]21 (mixture of isomers)	1.4	-15.8	17.2
COc1ccc(S(=O)(=O)Nc2ccc3c(c2)[C@H]2C[C@H](CC(=O)N(C)C)O[C@H](CO)[C@H]2O3)cc1	1.0	-3.3	4.3
Cn1cnc(S(=O)(=O)N2C[C@@H](O)COC[C@@H]3O[C@@H](CC(=O)N4CCN(c5ccccc5)CC4)CC[C@H]32)c1	1.5	-12.0	13.5
COc1ccc(CN2C[C@H](O)COC[C@H]3O[C@H](CC(=O)NCc4ccncn4)CC[C@@H]32)cc1	11.3	6.7	4.7
COc1cccc(C#Cc2ccc3c(c2)O[C@H](CN(C)C(=O)c2ccccn2)[C@H](C)CN([C@H](C)CO)S3(=O)=O)c1	3.0	1.7	1.3
C[C@@H]1CN([C@H](C)CO)C(=O)CCCn2nncc2CO[C@H]1CN(C)Cc1cccnc1	3.3	2.0	1.2
CN1c2ccc(Br)cc2[C@H]2[C@H](CCN2C(=O)c2ccc(F)cc2)[C@H]1CO	9.6	11.0	-1.3
C[C@@H](NC(=O)C[C@@H]1CC[C@@H]2[C@H](COC[C@H](O)CN2Cc2ccc(C(F)(F)F)cc2)O1)c1ccccc1	?	.	.
C[C@@H]1CN([C@H](C)CO)C(=O)c2cc(NC(=O)Nc3ccc(C(F)(F)F)cc3)ccc2O[C@H]1CN(C)Cc1ccc(C(=O)O)cc1	1.8	3.2	-1.4
CCN1[C@@H]2c3ccc(-c4ccccc4)c(=O)n3C[C@@H]2[C@@H](CO)[C@@H]1C(=O)Nc1ccccc1	-1.1	7.3	-8.4
CC=Cc1ccc2n(c1=O)C[C@@H]1[C@@H](CO)[C@H](C(=O)NCCC)[C@H]2N1CC1CCOCC1 (mixture of isomers)	4.2	2.1	2.1
CN(C)CC(=O)N1[C@@H](C#N)[C@@H](c2ccc(C#CC3CCCC3)cc2)[C@@H]1CO	-2.8	-1.3	-1.5
Cc1cccc(S(=O)(=O)N(C)C[C@H]2OCc3cn(nn3)CCCC(=O)N([C@H](C)CO)C[C@@H]2C)c1	2.9	0.1	2.8
CNC[C@@H]1OCCCC[C@H](C)Oc2ccc(NC(=O)Nc3ccc(OC)cc3)cc2C(=O)N([C@H](C)CO)C[C@@H]1C	-1.6	-1.3	-0.2
O=C(Nc1cccc(F)c1)N1CC(=O)N2[C@H](CO)[C@@H](c3ccc(C#CC4CC4)cc3)[C@@H]2C1	-8.6	-5.1	-3.5
CNC[C@H]1Oc2ccc(NS(=O)(=O)c3ccc(Cl)cc3)cc2CC(=O)N([C@H](C)CO)C[C@@H]1C	-2.2	-2.5	0.3
O=C(NC1CCCC1)N[C@H]1C=C[C@@H](CC(=O)N2CCOCC2)O[C@H]1CO	4.4	4.3	0.1
O=C(Nc1ccccc1)N1C[C@H]2[C@@H](c3ccccc31)[C@H](CO)N2Cc1ccccc1Cl	-1.5	2.6	-4.1
C[C@@H]1CN([C@@H](C)CO)C(=O)c2cccc(NC(=O)C3CCCCC3)c2O[C@@H]1CN(C)C(=O)Nc1ccc(F)cc1	7.1	6.9	0.2
CCCC#Cc1cnc2c(c1)C(=O)N([C@H](C)CO)C[C@H](C)[C@H](CN(C)C(=O)Cc1ccccc1)O2	0.8	17.4	-16.6
CN(C)C(=O)[C@@H]1[C@@H](CO)[C@@H]2Cn3c(ccc(C4=CCCC4)c3=O)[C@H]1N2CC1CCCCC1	0.6	4.2	-3.6
COc1ccccc1CNC(=O)C[C@H]1CC[C@H]2[C@@H](COC[C@@H](O)CN2C(=O)Nc2ccc(Cl)cc2)O1	4.8	-6.0	10.8
COc1ccccc1C#Cc1ccc([C@@H]2[C@@H](C#N)N(C(=O)C3CCC3)[C@@H]2CO)cc1	0.6	0.8	-0.2
C[C@@H]1CN([C@@H](C)CO)S(=O)(=O)c2ccc(C#Cc3ccncc3)cc2O[C@H]1CN(C)S(=O)(=O)c1ccc(F)cc1	-7.3	-3.8	-3.6
CC=Cc1ccc2n(c1=O)C[C@@H]1[C@@H](CO)[C@H](C(=O)NCC)N(C(=O)C3CCOCC3)[C@H]21 (mixture of isomers)	-6.1	-3.4	-2.7
CN(C)CC(=O)Nc1ccc2c(c1)[C@@H]1C[C@@H](CC(=O)NCc3cc(F)ccc3F)O[C@H](CO)[C@@H]1O2	4.2	2.3	1.9
CCCNC(=O)Nc1ccc2c(c1)C(=O)N(C)[C@H]1CC[C@H](CC(=O)Nc3ccccc3C)O[C@@H]1CO2	-0.2	-1.6	1.5
COc1ccccc1NC(=O)N1[C@H](CO)[C@H](c2ccccc2)[C@@H]1C#N	1.8	-3.9	5.7
COc1cccc(-c2ccc([C@H]3[C@H](C#N)N(C(=O)Cc4ccccc4)[C@H]3CO)cc2)c1	2.1	-0.7	2.8
O=C(C[C@@H]1C=C[C@H](NS(=O)(=O)c2ccccc2)[C@@H](CO)O1)NCCN1CCCCC1	3.4	2.2	1.1
C[C@@H]1CN([C@H](C)CO)S(=O)(=O)c2ccc(C#Cc3ccccc3F)cc2O[C@@H]1CN(C)CC1CCOCC1	1.8	1.4	0.3
COc1ccc2c3c([nH]c2c1)[C@H](CO)N(C)CC31CCN(C(=O)c2cccnc2)CC1	14.0	12.3	1.7
COc1ccc2c3c(n(C)c2c1)[C@H](CO)N(Cc1cccc(F)c1)CC31CCN(C)CC1	?	.	.
CCCC(=O)N1CC2(CCN(C(=O)NC(C)C)CC2)c2c([nH]c3cc(OC)ccc23)[C@@H]1CO	14.1	9.4	4.7

Going on with the list.
SMILES	DUX4 txn inh	DUX4 txn inh difference	DUX4 txn inh control
O=C(c1ccccc1)N1CC[C@@H]2[C@H](CO)Nc3ccc(C#Cc4cccc(F)c4)cc3[C@@H]21	-39.6*	-33.4*	-6.2*
Cc1ccccc1-c1cnc2c(c1)C(=O)N([C@@H](C)CO)C[C@H](C)[C@@H](CN(C)Cc1ccccc1F)O2	3.7	5.4	-1.6
O=C(NCC1CCCCC1)[C@H]1[C@H](CO)[C@H]2Cn3c(ccc(-c4cccnc4)c3=O)[C@@H]1N2	-6.2	-4.3	-1.9
O=C(C[C@@H]1CC[C@H]2[C@@H](COC[C@@H](O)CN2S(=O)(=O)c2ccccc2)O1)NCc1ccc2c(c1)OCO2	4.3	6.3	-2.0
C[C@@H]1CN([C@H](C)CO)C(=O)c2ccccc2-c2ccccc2CO[C@@H]1CN(C)C(=O)Nc1ccnc(N2CCOCC2)c1	5.9	-2.0	7.9
C/C=C/c1ccc([C@@H]2[C@H](CO)N(S(=O)(=O)CC)C23CN(C(C)=O)C3)cc1	8.6	6.4	2.2
C[C@@H]1CN([C@H](C)CO)C(=O)c2cc(-c3ccc(F)cc3)cnc2O[C@@H]1CN(C)S(C)(=O)=O	-4.6	-5.0	0.3
C[C@H]1CN([C@@H](C)CO)C(=O)Cc2cc(NC(=O)CCC(F)(F)F)ccc2O[C@H]1CN(C)C(=O)Nc1cccc2ccccc12	-1.7	-1.0	-0.7
COc1ccc(NC(=O)Nc2ccc3c(c2)[C@H]2C[C@@H](CC(=O)N4CCN(C)CC4)O[C@@H](CO)[C@H]2O3)cc1	0.8	0.0	0.8
CN1c2ccc(-c3ccccc3)cc2[C@@H]2[C@@H](CCN2C(=O)CN2CCOCC2)[C@@H]1CO	18.4	7.4	11.0
CC(=O)N1[C@@H](CO)[C@H](c2ccccc2)[C@@H]1CN(C(=O)NC(C)C)C1CCCC1	-1.6	-1.4	-0.2
CCN1[C@@H]2c3ccc(-c4ccccc4F)c(=O)n3C[C@H]1[C@H](CO)[C@H]2C(=O)NCCOC	6.8	2.9	4.0
C[C@H]1CCCCO[C@H](CN(C)C(=O)Nc2ccc(F)cc2)[C@@H](C)CN([C@@H](C)CO)C(=O)c2cc(NC(=O)NC3CCCCC3)ccc2O1	2.4	2.6	-0.2
CC(=O)N1[C@H](CO)[C@@H]2c3ccccc3N(C(=O)c3ccccc3)C[C@@H]21	-2.1	2.6	-4.7
Cn1cnc(S(=O)(=O)N2CC[C@@H]3[C@@H](CO)Nc4ccc(C#Cc5ccc(F)cc5)cc4[C@@H]32)c1	22.8	19.1	3.7
O=C(CC1CC1)N1CC(=O)N2[C@H](CO)[C@H](c3ccc(C#Cc4ccc(F)cc4)cc3)[C@H]2C1	-6.1	-4.0	-2.2
CC(=O)NC[C@H]1[C@@H](c2ccc(-c3ccccc3F)cc2)[C@@H](CO)N1CCC(F)(F)F	-4.0	-0.3	-3.7
CC(C)CNC[C@@H]1[C@@H](c2ccccc2)[C@@H](CO)N1Cc1ccc(F)cc1	-4.7	-3.4	-1.3
Cn1cnc(S(=O)(=O)N[C@@H]2C=C[C@@H](CC(=O)N3CCN(c4ccccc4)CC3)O[C@@H]2CO)c1	3.2	0.8	2.4

Complete entries from above. Order of values: DUX4 txn inh	DUX4 txn inh difference	DUX4 txn inh control
C[C@@H]1CN([C@H](C)CO)C(=O)c2ccccc2-c2ccccc2CO[C@@H]1CN(C)C(=O)Nc1ccnc(N2CCOCC2)c1 across the screens: 5.9	-2.0	7.9
O=C(C[C@@H]1CC[C@H]2[C@@H](COC[C@@H](O)CN2S(=O)(=O)c2ccccc2)O1)NCc1ccc2c(c1)OCO2 across the screens: 4.3	6.3	-2.0

Bioassay records from PubChem.
